Screening data: PubChem BioAssay, Vanderbilt University
GIRK2 act: activators of human GIRK2 potassium channels. calls only for hits at 25 µM. HEK293-GIRK2 thallium flux, Thallos fluorescence. hit rate 0.05% among 63,000;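 active = among the strongest 0.2% of first-round signals and kept after retests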;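 also: first round at about 10 µM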
Target sequence (P48051 whole entry, looked up): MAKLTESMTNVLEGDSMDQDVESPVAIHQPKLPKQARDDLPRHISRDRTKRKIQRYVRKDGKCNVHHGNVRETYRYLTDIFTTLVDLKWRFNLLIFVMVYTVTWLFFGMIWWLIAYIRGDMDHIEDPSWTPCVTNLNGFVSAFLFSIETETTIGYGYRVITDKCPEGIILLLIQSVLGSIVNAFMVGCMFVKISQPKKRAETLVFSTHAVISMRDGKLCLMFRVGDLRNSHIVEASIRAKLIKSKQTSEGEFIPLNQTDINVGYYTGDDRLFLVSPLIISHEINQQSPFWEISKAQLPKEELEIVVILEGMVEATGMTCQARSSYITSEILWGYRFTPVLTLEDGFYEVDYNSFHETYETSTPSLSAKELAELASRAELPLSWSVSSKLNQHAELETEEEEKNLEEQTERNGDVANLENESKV
Calls only; i = inactive.

Sample of the layout:
SMILES	GIRK2 act
CCc1ccc(Oc2cc(N3CCC(C(=O)NC4CCC(C)CC4)CC3)ncn2)cc1 (centres undefined)	i
COC(=O)c1ccccc1NC(=O)CN1CCN(c2ccc(F)c(F)c2)C1=O	i
O=C(NCCC1=CCCCC1)c1csc(-n2cccc2)n1	i
CN(C)C(=O)O[C@@H]1CN[C@@H](C#Cc2cc3ncnc(Nc4ccc(OCc5cccc(F)c5)c(Cl)c4)c3s2)C1	i
Cn1c(=NC(=O)CCCS(=O)(=O)Cc2ccccc2)sc2ccccc21	i
O=C(NC1CCCCC1)N1CCN(Cc2nnnn2-c2ccc(F)cc2)CC1	i
C=CCc1cccc2cc(C(=O)NCCc3ccc(OC)c(OC)c3)c(=O)oc12	i
O=C(Nc1nc(CCC(=O)N2CCCCC2)cs1)NC1CCCCC1	i
CCCC(=O)N1CCC(Oc2ccccn2)CC1	i
CCCn1c(C(=O)N2CCN(c3ccccc3F)CC2)cc2c(=O)n(C)c(=O)n(C)c21	i
C=CCn1c(NCCCO)nc2c1c(=O)[nH]c(=O)n2C	i
CCN(CC)c1nc2ccsc2c(=O)n1CCC(=O)NC1CCCC1	i
COc1ccc(-c2csc3c(=O)n(CC(=O)Nc4cccc(OC)c4)cnc23)cc1	i
Cc1noc(C)c1Cn1cc(-c2nc(-c3ccccc3Cl)no2)ccc1=O	i
COc1ccc2c(c1)c(CC(=O)O)c(C)n2Cc1ccc(Cl)cc1	i
CC(NC(=O)C(N)CC(O)C(=O)O)C(O)C12CC1CC=CC2=O (centres undefined)	i
COc1cc2nc(SCC(=O)Nc3ccc(Cl)cc3F)n3nc(C)nc3c2cc1OC	i
COc1ccccc1NC(=O)c1nc(S(C)(=O)=O)ncc1Cl	i

All compounds of this part, from the first entry:
SMILES	GIRK2 act
CCc1ccc(Oc2cc(N3CCC(C(=O)NC4CCC(C)CC4)CC3)ncn2)cc1 (centres undefined)	i
COC(=O)c1ccccc1NC(=O)CN1CCN(c2ccc(F)c(F)c2)C1=O	i
O=C(NCCC1=CCCCC1)c1csc(-n2cccc2)n1	i
CN(C)C(=O)O[C@@H]1CN[C@@H](C#Cc2cc3ncnc(Nc4ccc(OCc5cccc(F)c5)c(Cl)c4)c3s2)C1	i
Cn1c(=NC(=O)CCCS(=O)(=O)Cc2ccccc2)sc2ccccc21	i
O=C(NC1CCCCC1)N1CCN(Cc2nnnn2-c2ccc(F)cc2)CC1	i
C=CCc1cccc2cc(C(=O)NCCc3ccc(OC)c(OC)c3)c(=O)oc12	i
O=C(Nc1nc(CCC(=O)N2CCCCC2)cs1)NC1CCCCC1	i
CCCC(=O)N1CCC(Oc2ccccn2)CC1	i
CCCn1c(C(=O)N2CCN(c3ccccc3F)CC2)cc2c(=O)n(C)c(=O)n(C)c21	i
C=CCn1c(NCCCO)nc2c1c(=O)[nH]c(=O)n2C	i
CCN(CC)c1nc2ccsc2c(=O)n1CCC(=O)NC1CCCC1	i
COc1ccc(-c2csc3c(=O)n(CC(=O)Nc4cccc(OC)c4)cnc23)cc1	i
Cc1noc(C)c1Cn1cc(-c2nc(-c3ccccc3Cl)no2)ccc1=O	i
COc1ccc2c(c1)c(CC(=O)O)c(C)n2Cc1ccc(Cl)cc1	i
CC(NC(=O)C(N)CC(O)C(=O)O)C(O)C12CC1CC=CC2=O (centres undefined)	i
COc1cc2nc(SCC(=O)Nc3ccc(Cl)cc3F)n3nc(C)nc3c2cc1OC	i
COc1ccccc1NC(=O)c1nc(S(C)(=O)=O)ncc1Cl	i
O=C(Cn1ncn2nc(-c3ccc(Cl)cc3)cc2c1=O)Nc1ccc2c(c1)OCO2	i
O=C(NCCC(O)c1ccoc1)c1ccco1 (centres undefined)	i
Cc1ccc(NC(=O)CN2CCN(c3ccc(F)cc3)C2=O)cc1F	i
COc1ccc(CNC(=O)c2nnn(-c3ccccc3F)c2-c2cccnc2)c(OC)c1	i
CCOC(=O)C1=C(C)NC(=O)NC1c1cccc(OCc2ccccc2)c1 (centres undefined)	i
O=C(c1cnn(-c2ccccc2)n1)N1CCN(C(=O)c2cnn3ccccc23)CC1	i
CC(=O)Nc1ccc(S(=O)(=O)NCCc2nc(C3CC3)cc(C(F)(F)F)n2)cc1	i
COc1cc(C(=O)Nc2cc3c4c(c2)CC(=O)N4CCC3)cc(OC)c1OC	i
CC1=C(C(=O)Nc2c(C)cccc2C)C(c2ccco2)C(C#N)=C(SCC(N)=O)N1 (centres undefined)	i
O=C(NCCOc1ccccc1)NCCc1ccsc1	i
Cc1ccccc1-n1c(C)c(C)n2c3c(=O)n(CCN4CCOCC4)c(=O)n(C)c3nc12	i
CCOC(=O)c1sc(NC(=O)c2ccc3c(c2)c(=O)cc(C)n3CC)nc1C	i
Cc1cc(C)cc(-n2c(C)cn3c4c(=O)n(CCN5CCOCC5)c(=O)n(C)c4nc23)c1	i
CC(=O)N1CCN(C(=O)C(NC(=O)c2ccc(C)cc2)S(=O)(=O)c2ccccc2)CC1 (centres undefined)	i
COc1cccc(-c2cc(C(=O)N3CCN(C(=O)C4CC4c4ccccc4)CC3)[nH]n2)c1 (centres undefined)	i
Cc1ccc(NC(=O)CSc2ncnc3nc(N4CCCC4)sc23)c(C)c1	i
COc1ccccc1-n1c(C)cn2c3c(=O)n(CCN4CCOCC4)c(=O)n(C)c3nc12	i
CCOc1ccccc1-n1c(C)cn2c3c(=O)n(CC(=O)OC)c(=O)n(C)c3nc12	i
Cc1cc(NC(=O)C2CCN(C(=O)c3snnc3C)CC2)no1	i
O=c1[nH]c2nnc(Nc3ccccc3)n2c2c1cnn2-c1ccccc1	i
O=C(CSc1nnc(N2CCN(C(=O)Cn3cnc4ccccc43)CC2)s1)Nc1ccccc1	i
NC12CC3CC(CC(C3)C1)C2	i
Cc1ccc(S(=O)(=O)NCCn2ncc3c(NCCc4ccccc4)ncnc32)cc1	i
CNC(=O)Cc1ccc(-n2c(=O)c3ccccc3n(CC(=O)NCc3ccccc3Cl)c2=O)cc1	i
O=C(Nc1nc(-c2cccnc2)cs1)C1CCN(S(=O)(=O)c2cccs2)CC1	i
CCOc1ccccc1NC(=O)C(=O)NCC(C)(O)Cc1ccc(OC)cc1 (centres undefined)	i
Cc1cc(C)n(-c2ccc(N3CCC(C(=O)NCc4cccs4)CC3)nn2)n1	i
COc1cccc(S(=O)(=O)NCC2CCN(C(=O)c3cccnc3)CC2)c1	i
CS(=O)(=O)N1CCN(C(=O)c2csc(Nc3ccc(OC(F)F)cc3)n2)CC1	i
Cc1nnc2c(SCC(=O)Nc3cc(C(F)(F)F)ccc3Cl)nc3ccccc3n12	i
O=c1ccn(-c2ccc(Cl)cc2)nc1-c1nc(-c2ccc(Br)cc2)no1	i
COCCc1nnc(NC(=O)C(C)Oc2ccccc2)o1 (centres undefined)	i

More entries
SMILES	GIRK2 act
Cc1ccc(-c2noc(-c3cccn(CC(=O)Nc4cc(C(F)(F)F)ccc4Cl)c3=O)n2)cc1	i
COc1cc(/C=C/C(=O)OC2CN(c3nc4ccc(F)cc4s3)C2)cc(OC)c1OC	i
COc1ccc(/C=C2\Oc3c(ccc4c3CN(Cc3ccncc3)CO4)C2=O)c(OC)c1OC	i
O=c1[nH]c2nc(NCCN3CCCC3)ncc2c(=O)n1Cc1ccccc1F	i
O=C(Nc1cccc(C(F)(F)F)c1)c1nnn(-c2ccc(Br)cc2)n1	i
CCc1ccc(-n2c(C)c(C)n3c4c(=O)n(CC(N)=O)c(=O)n(C)c4nc23)cc1	i
CCCCC(=O)Nc1cccc(-n2c(C)nc3ccccc3c2=O)c1	i
O=C(Nc1ccc(-c2cnc3n2CCC3)cc1)Nc1ccccc1F	i
CCOc1ccc(N(C)S(=O)(=O)c2ccsc2C(=O)NC2CCCC2)cc1	i
Cc1ccc(N2CC(C(=O)NCCOc3cc(N4CCOCC4)ncn3)CC2=O)cc1C (centres undefined)	i
COc1ccc(NC(=O)CCS(=O)(=O)Cc2ccccc2)c2ccccc12	i
O=C(CN1CCN(CC(O)C2CC2)CC1)N1CCCC1 (centres undefined)	i
COc1ccccc1NC(=O)c1coc(NC(=O)c2ccccc2)n1	i
Cc1ccc(N2CC(c3nc(-c4ccc(C(F)(F)F)cc4)no3)CC2=O)c(C)c1 (centres undefined)	i
c1ccc(OCCn2c(CN3CCCCCC3)nc3ccccc32)cc1	i
COc1ccc(OC)c(S(=O)(=O)N2CCN(c3cnccn3)CC2)c1	i
CCOCC(=O)Nc1ccc(-n2nnc(C(N)=O)n2)cc1	i
CCc1ccc(S(=O)(=O)NCCn2nc(-n3cccn3)ccc2=O)s1	i
CCOC(=O)N1CCc2c(sc(NC(=O)c3ccco3)c2-c2nc3ccccc3s2)C1	i
COc1ccc(C2CC3C4NN=C(CCC(=O)N5CCSCC5)N4C=CN3N2)cc1 (centres undefined)	i
COc1ccc2nc(N(CCN3CCOCC3)C(=O)c3ccc4c(c3)OCCO4)sc2c1	i
COC(=O)C1=CO[C@@H](O[C@@H]2O[C@H](CO)[C@@H](O)[C@H](O)[C@H]2O)[C@@H]2[C@@H](C)[C@@H](OC(=O)C3=CO[C@@H](O[C@@H]4O[C@H](CO)[C@@H](O)[C@H](O)[C@H]4O)[C@@H]4[C@@H](C)[C@@H](OC(C)=O)C[C@H]34)C[C@H]12	i
Cc1cc(C)c2c(n1)nn1c(N3CCN(CCc4ccccc4)CC3)cc(C)nc21	i
O=C(O)CC(Nc1ccccn1)c1ccccc1 (centres undefined)	i
Cc1noc(C)c1CCC(=O)N1CCN(c2ccc(-c3noc(C4CC4)n3)cn2)CC1	i
O=c1ccc(-c2ccccc2)nn1CCc1nc(-c2ccc3c(c2)OCO3)no1	i
CC(=O)c1ccc(S(=O)(=O)N2CCCC(c3nn(C)c(=O)n3-c3ccccc3)C2)cc1 (centres undefined)	i
O=C(c1ccc2nsnc2c1)N1CCC(Cn2ccnc2)CC1	i
COc1ccc(NC(=O)c2nn(-c3cccc(F)c3)c(OC)cc2=O)cc1Cl	i
NS(=O)(=O)c1ccc(CCNc2ncnc3[nH]ncc23)cc1	i
Cc1cc(C)c(C)c(S(=O)(=O)NCC(=O)N2CCN(C(=O)c3ccco3)CC2)c1C	i
Cc1nc(-c2cccc(NC(=O)C3CSCCC(=O)N3)c2)cs1 (centres undefined)	i
O=C(Cc1ccc2c(c1)OCO2)N1CC(Oc2nc3c(Cl)cccc3s2)C1	i
NC(=O)c1nnn(-c2ccc(NC(=O)c3ccsc3)cc2)n1	i
O=C(Cc1ccccc1)N(CCCn1ccnc1)c1nc2c(F)cc(F)cc2s1	i
COc1ccc(NC(=O)CN2CCCCC2c2nc(-c3cccc(F)c3)no2)cc1 (centres undefined)	i
CCOc1ccccc1CNC(=O)CCc1nnc2ccc(-c3ccc(C)cc3)nn12	i
COc1ccc(-c2csc(-n3nc(C)cc3NC(=O)c3cc(C)cc(C)c3)n2)cc1OC	i
CSc1ccc(NC(=O)C2CCCN2S(=O)(=O)c2ccc(Cl)s2)cc1 (centres undefined)	i
COc1ccc(S(=O)(=O)NCCN2CCN(c3ccccc3F)CC2)cc1	i
O=C(NCC1CCN(Cc2ccco2)CC1)NC1CC1	i
CCc1cccc(OCC(O)Cn2c(NCCN3CCOCC3)nc3c2c(=O)[nH]c(=O)n3C)c1 (centres undefined)	i
CCOC(=O)c1cccc(NC(=O)C2CCN(c3c(C#N)cnc4ccc(F)cc34)CC2)c1	i
COc1ccc(OC)c(-c2cc(C(=O)NCc3cc(-c4ccncc4)n(C)n3)n(C)n2)c1	i
COc1cc(NS(=O)(=O)c2ccc(NC(=O)c3ccc(S(=O)(=O)N4CCCc5ccccc54)cc3)cc2)nc(OC)n1	i
Cc1nn(C)c2nc(NNC(=O)Nc3cc(Cl)nc(Cl)c3)cc(C(C)C)c12	i
CCOC(=O)Cc1csc(NC(=O)c2csc(Nc3ncccn3)n2)n1	i
C=C(C)COc1ccc(-c2[nH]ncc2Oc2ccc(OC)cc2)c(O)c1	i
COc1ccc(CNC(=O)N(Cc2ccsc2)Cc2ccco2)cc1	i
Cc1ccc(CCNC(=O)CCCC2=NS(=O)(=O)c3ccccc3N2)cc1	i

Additional records
SMILES	GIRK2 act
Cc1cc2ncn(CC3CCN(CC(=O)Nc4ccccc4C(F)(F)F)CC3)c2cc1C	i
O=c1c2ccccc2n(Cc2nc(-c3cccc(C(F)(F)F)c3)no2)c(=O)n1CC1CCCO1 (centres undefined)	i
Cc1nnc(SCC(=O)N2CCC(c3noc4ccc(F)cc34)CC2)s1	i
C=CCC1=CC(OC)(C(C)Cc2ccc3c(c2)OCO3)C(OC)=CC1=O (centres undefined)	i
O=C(NCCn1ncc2c(N3CCN(Cc4ccccc4)CC3)ncnc21)c1ccc2ccccc2c1	i
Cc1ccc(NC(=O)N2CCN(CCNC(=O)c3ccsc3)CC2)cc1C	i
O=C(NCC#CCN1CCOCC1)C1CC(=O)N(c2cccc(Br)c2)C1 (centres undefined)	i
O=C(NCC1CCN(c2cnccn2)CC1)C1(c2ccccc2)CCOCC1	i
COc1ccc(N/C=C(\C#N)c2nc(-c3cc4ccccc4oc3=O)cs2)cc1OC	i
COc1ccc2sc(N3CC(C(=O)NCCCN4CCCC4=O)C3)nc2c1	i
O=S(=O)(NCC1(c2cccs2)CCOCC1)c1cccc(Cl)c1	i
COc1ccc(NC(=O)Nc2ccc(Nc3ccc(C)nn3)cc2)c(C)c1	i
COc1cccc(OCC(=O)NC2CC(=O)N(C3CC3)C2)c1 (centres undefined)	i
CCC(=O)Nc1sc2c(c1-c1nc3ccccc3s1)CCC(C)C2 (centres undefined)	i
CCN(Cc1ccccc1)C(=O)C(C)n1nc(C)ccc1=O (centres undefined)	i
Cc1cc(=O)n(CC(=O)Nc2ccc3c(c2)OCCO3)c(N)n1	i
CCOc1ccc(NC(=O)NC2(c3nc(C)no3)CCCCC2)cc1	i
Cc1ccc(NC(=O)CN2C(=O)C3(SCC(=O)N3c3ccc(F)c(F)c3)c3ccccc32)cc1 (centres undefined)	i
CCCS(=O)(=O)N1CCc2ccc(NC(=O)NC3CC3)cc2C1	i
COCCN(Cc1ccoc1)C(=O)c1cc(C)ccc1C	i
Cc1noc(C)c1CCC(=O)N1CCN(Cc2ccsc2)CC1	i
COc1ccc(Cl)cc1C(=O)N1CCN(CCn2ccnc2)CC1	i
CCOc1ccccc1CNC(=O)Cn1cnc2c([nH]c3ccccc32)c1=O	i
COc1ccc(-c2csc(CN3CCN(C(=O)c4cccc(F)c4)CC3)n2)cc1	i

This is a subset; rates above refer to the full screens.
